Source: PubChem BioAssay
MLL AF4-AF9 inh = inhibitors of human MLL-AF4/AF9 interaction. P42568. AlphaScreen, biotin-AF4 peptide binding to FLAG-AF9. inhibition, % at 10 µM. 0.47% of 350,000 active. AID 651704;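 active means every replicate reaching a set inhibition limit, whatever the replicate mean, cut at about 25% in these data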;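 further: 0% = plate neutral control median and 100% = total signal loss; the record names both 10 and 1 µM as test concentration; the first replicate is given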
Target sequence (P42568 whole entry, looked up): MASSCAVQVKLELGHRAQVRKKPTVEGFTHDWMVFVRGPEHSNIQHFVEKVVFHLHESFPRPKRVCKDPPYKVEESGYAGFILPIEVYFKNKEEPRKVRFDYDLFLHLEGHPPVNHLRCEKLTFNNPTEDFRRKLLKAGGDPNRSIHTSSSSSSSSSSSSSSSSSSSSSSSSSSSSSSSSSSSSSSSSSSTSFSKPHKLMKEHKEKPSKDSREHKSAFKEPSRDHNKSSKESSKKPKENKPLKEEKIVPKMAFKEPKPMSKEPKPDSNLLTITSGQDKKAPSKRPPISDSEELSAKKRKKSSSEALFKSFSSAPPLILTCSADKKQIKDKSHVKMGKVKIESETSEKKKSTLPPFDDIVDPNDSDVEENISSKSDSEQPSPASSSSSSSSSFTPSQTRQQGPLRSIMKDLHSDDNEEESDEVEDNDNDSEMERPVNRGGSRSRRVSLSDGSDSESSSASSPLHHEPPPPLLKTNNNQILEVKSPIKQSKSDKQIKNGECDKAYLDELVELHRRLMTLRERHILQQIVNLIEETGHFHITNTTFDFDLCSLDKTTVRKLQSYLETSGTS
An asterisk follows results filed as active; & = joins results of further samples. The list is partial, so the mix of outcomes need not match the whole.

Screening CCC(=O)NC[C@H]1[C@@H](c2ccc(C3=CCCC3)cc2)[C@@H](CO)N1C(=O)CN(C)C returned MLL AF4-AF9 inh 2.0.
`O=C(c1ccc(F)cc1)N1CC[C@@H]2[C@@H](CO)Nc3ccc(C#Cc4ccc(F)cc4)cc3[C@@H]21` gave MLL AF4-AF9 inh -16.
Screening N#Cc1ccc(-c2ccc3c(c2)[C@@H]2[C@@H](CCN2C(=O)C2CCC2)[C@H](CO)N3)cc1 returned MLL AF4-AF9 inh -10.
`COc1cccc(S(=O)(=O)N2C[C@@H]3N[C@H](C2)C3c2ccc(-c3ccccc3OC)cc2)c1` (some centres not stated) gave MLL AF4-AF9 inh 1.7&3.1.
COc1cccc(NC(=O)N2CC(=O)N3[C@@H](CO)[C@H](c4ccc(C#CC5CCCCC5)cc4)[C@@H]3C2)c1 was read as MLL AF4-AF9 inh 5.6.
O=C(c1cccc(F)c1)N1C[C@H]2[C@@H](c3ccccc31)[C@@H](CO)N2C(=O)C1CCCCC1 was read as MLL AF4-AF9 inh -0.9.
`O=C(c1ccc(F)cc1)N1CC(=O)N2[C@H](CO)[C@H](c3ccc(C#CC4CCCC4)cc3)[C@H]2C1` gave MLL AF4-AF9 inh 4.2.
For C[C@H]1CN([C@@H](C)CO)C(=O)c2c(c3ccccc3n2C)-c2ccccc2CO[C@@H]1CN(C)Cc1ccc(C(F)(F)F)cc1 the results were MLL AF4-AF9 inh 0.1.
Screening CCC(=O)N1CC(=O)N2[C@H](CO)[C@H](c3ccc(C#Cc4cccc(F)c4)cc3)[C@H]2C1 returned MLL AF4-AF9 inh -3.6.
Screening CC(C)c1cn(CC[C@H]2CC[C@@H](NC(=O)Nc3cc(Cl)cc(Cl)c3)[C@@H](CO)O2)nn1 returned MLL AF4-AF9 inh 1.8.
Screening CC(=O)N(C[C@H]1N[C@H](CO)[C@@H]1c1ccc(-c2cccc(F)c2)cc1)C1CCCC1 returned MLL AF4-AF9 inh -0.8.
For CC(C)C#Cc1ccc([C@@H]2[C@H]3CN(C(=O)Cc4ccccc4)CC(=O)N3[C@H]2CO)cc1 the results were MLL AF4-AF9 inh 2.2.
For C/C=C/c1ccc([C@H]2[C@H]3CN(C(=O)c4ccccc4)CC(=O)N3[C@H]2CO)cc1 the results were MLL AF4-AF9 inh 2.7.
Screening OC[C@@H]1Nc2ccc(C3=CCCCC3)cc2[C@@H]2[C@H]1CCN2Cc1nccs1 returned MLL AF4-AF9 inh 25*.
For Cc1ccc(S(=O)(=O)Nc2ccc3c(c2)C(=O)N([C@@H](C)CO)C[C@H](C)[C@H](CN(C)C(=O)C2CCCCC2)OCCCC[C@@H](C)O3)cc1 the results were MLL AF4-AF9 inh 0.8.
For COc1ccc(NC(=O)N(C)C[C@H]2Oc3cc(-c4cccc(C(=O)N(C)C)c4)ccc3S(=O)(=O)N([C@@H](C)CO)C[C@H]2C)cc1 the results were MLL AF4-AF9 inh -4.4.
`COCC#Cc1ccc([C@@H]2[C@H]3CN(C(=O)C4CCOCC4)CC(=O)N3[C@H]2CO)cc1` gave MLL AF4-AF9 inh -0.3.
Screening CC(C)CC#Cc1ccc([C@H]2[C@@H](CO)N3CCCCN(C(=O)Nc4ccccc4)C[C@H]23)cc1 returned MLL AF4-AF9 inh -7.5.
O=C(Nc1cccc(F)c1)N1CC(=O)N2[C@@H](CO)[C@H](c3ccc(-c4ccccc4F)cc3)[C@@H]2C1 was read as MLL AF4-AF9 inh 0.5.
C[C@@H]1CN([C@H](C)CO)C(=O)c2cc(NC(=O)c3ccncc3)ccc2O[C@@H](C)CCCCO[C@@H]1CN(C)S(=O)(=O)c1ccccc1 was read as MLL AF4-AF9 inh -0.3.
COc1ccc2c3c(n(C)c2c1)[C@H](CO)N(CC1CC1)CC31CN(Cc2ccc(F)cc2)C1 was read as MLL AF4-AF9 inh 31*.
C/C=C/c1ccccc1[C@H]1[C@H](C#N)N(C(=O)CN2CCOCC2)[C@H]1CO was read as MLL AF4-AF9 inh -1.4.
O=C(c1ccncc1)N1CC(=O)N2[C@H](CO)[C@H](c3ccc(/C=C/c4ccccc4)cc3)[C@@H]2C1 was read as MLL AF4-AF9 inh 4.9.
For CC(C)NC(=O)N1CCCCN2[C@@H](CO)[C@H](c3ccc(C#Cc4ccccc4F)cc3)[C@@H]2C1 the results were MLL AF4-AF9 inh 6.6.
For CC(=O)N1CC(=O)N2[C@H](C1)[C@@H](c1ccc(-c3cccc(C(=O)N(C)C)c3)cc1)[C@@H]2CO the results were MLL AF4-AF9 inh -0.8.
O=S(=O)(NC[C@H]1CC[C@@H]2NC[C@@H]2O1)c1ccccc1F was read as MLL AF4-AF9 inh -2.8.
CCC(=O)Nc1ccc2c(c1)OC[C@H](C)N(C(=O)CC)C[C@H](C)[C@@H](OC)CN(C)C2=O was read as MLL AF4-AF9 inh -2.8.
COc1ccc(-c2ccc(C3[C@H]4CNC[C@@H]3N4S(=O)(=O)c3cn(C)cn3)cc2)cc1 (some centres not stated) was read as MLL AF4-AF9 inh 1.6.
CCCC#Cc1ccc([C@H]2[C@H](CO)N3C(=O)CN(C(=O)c4ccccc4)C[C@@H]23)cc1 was read as MLL AF4-AF9 inh 0.0.
For O=C(c1cnccn1)N1CC(=O)N2[C@H](CO)[C@@H](c3ccc(C#CC4CC4)cc3)[C@H]2C1 the results were MLL AF4-AF9 inh -0.7.
For O=C(Nc1cc(F)ccc1F)N1CC(=O)N2[C@H](C1)[C@@H](c1ccc(-c3ccccc3)cc1)[C@@H]2CO the results were MLL AF4-AF9 inh -0.5.
CN(C)C(=O)c1cccc(-c2ccc(C3[C@@H]4CN(S(=O)(=O)Cc5ccccc5)C[C@H]3N4)cc2)c1 (some centres not stated) was read as MLL AF4-AF9 inh 0.4.
For CCCC#Cc1ccc([C@H]2[C@H]3CN(C(=O)NCCC)CC(=O)N3[C@H]2CO)cc1 the results were MLL AF4-AF9 inh -1.2.
C[C@H](CO)N1C[C@H](C)[C@H](CN(C)Cc2ccc(Cl)c(Cl)c2)OCCCC[C@H](C)Oc2ccc(NS(C)(=O)=O)cc2C1=O was read as MLL AF4-AF9 inh 5.4.
Screening O=C(C[C@@H]1CC[C@@H]2[C@H](COC[C@@H](O)CN2S(=O)(=O)c2ccccc2)O1)NCCN1CCCC1 returned MLL AF4-AF9 inh -3.2.
CC=Cc1ccc2n(c1=O)C[C@@H]1[C@@H](CO)[C@H](C(=O)NCCCN(C)C)[C@H]2N1C(=O)c1ccccc1 (mixture of isomers) was read as MLL AF4-AF9 inh -2.6.
Screening COc1cccc(-c2ccc([C@H]3[C@H](CO)N4C(=O)CN(C(=O)c5ccncc5)C[C@@H]34)cc2)c1 returned MLL AF4-AF9 inh -2.4.
For C[C@@H]1CCCCO[C@@H](CN(C)C(=O)Nc2cccc3ccccc23)[C@H](C)CN([C@H](C)CO)C(=O)c2cc(NS(=O)(=O)c3ccc(F)cc3)ccc2O1 the results were MLL AF4-AF9 inh 1.4.
CO[C@@H]1CN(C)C(=O)c2ccc(NS(C)(=O)=O)cc2OC[C@@H](C)N(C(=O)C2CCCCC2)C[C@H]1C was read as MLL AF4-AF9 inh -1.1.
Screening Cc1cccc(-c2ccc([C@@H]3[C@@H](CO)N4C(=O)CN(C(=O)NC5CCCCC5)C[C@@H]34)cc2)c1 returned MLL AF4-AF9 inh -0.2.
`O=C(NC1CCC1)[C@@H]1[C@@H](CO)[C@@H]2Cn3c(ccc(-c4ccncc4)c3=O)[C@@H]2N1CCc1ccccc1` gave MLL AF4-AF9 inh -2.2.
Screening CCC(=O)N1[C@H](CO)[C@H](c2ccc(C#CC3(O)CCCC3)cc2)[C@@H]1CNC(C)=O returned MLL AF4-AF9 inh 1.3.
Screening COCC(=O)N(C)C[C@@H]1Oc2ncc(Br)cc2C(=O)N([C@@H](C)CO)C[C@@H]1C returned MLL AF4-AF9 inh -2.6.
Screening C[C@H]1CN([C@@H](C)CO)C(=O)c2c(c3ccccc3n2C)-c2ccccc2CO[C@@H]1CN(C)Cc1ccccc1 returned MLL AF4-AF9 inh 10.
Screening C[C@@H]1CCCCO[C@@H](CN(C)Cc2ccc3c(c2)OCO3)[C@@H](C)CN([C@H](C)CO)C(=O)c2cc(NS(=O)(=O)c3ccc(F)cc3)ccc2O1 returned MLL AF4-AF9 inh 5.2.
COC(=O)c1ccc(CN2CC(=O)N3[C@H](CO)[C@@H](c4ccc(-c5ccccc5F)cc4)[C@H]3C2)cc1 was read as MLL AF4-AF9 inh 2.8.
Screening COCC#Cc1cnc2c(c1)C(=O)N([C@@H](C)CO)C[C@@H](C)[C@H](CN(C)Cc1ccc(F)cc1)O2 returned MLL AF4-AF9 inh 0.0.
`COc1cccc(-c2ccc([C@H]3[C@H]4CNCC(=O)N4[C@H]3CO)cc2)c1` gave MLL AF4-AF9 inh -2.0.
O=C(NCC1CCCCC1)[C@@H]1N[C@@H]2c3ccc(C4=CCCCC4)c(=O)n3C[C@@H]2[C@H]1CO was read as MLL AF4-AF9 inh 2.4.
For CC(C)CC#Cc1ccc2c(c1)O[C@@H](CN(C)C(=O)Cc1ccncc1)[C@H](C)CN([C@@H](C)CO)S2(=O)=O the results were MLL AF4-AF9 inh -0.1.
Screening CCNC(=O)[C@H]1[C@H](CO)[C@H]2Cn3c(ccc(C4=CCCCC4)c3=O)[C@H]2N1Cc1ccc2c(c1)OCO2 returned MLL AF4-AF9 inh -1.0.
For COc1ccc(-c2ccc(C3[C@@H]4CN(Cc5ccccn5)C[C@H]3N4)cc2)cc1 (some centres not stated) the results were MLL AF4-AF9 inh 8.5&14.
`C=CCC12C[C@@]3(O[C@H](c4ccc(C(F)(F)F)cc4)N=C3C[C@H](c3ccc(OC)cc3)[C@H]1C)N(Cc1ccc3c(c1)OCO3)C2=O` gave MLL AF4-AF9 inh -6.1.
Screening Cc1noc(C)c1NC(=O)N(C)C[C@@H]1OCCCC[C@@H](C)Oc2ccc(NS(=O)(=O)c3ccccc3)cc2C(=O)N([C@@H](C)CO)C[C@H]1C returned MLL AF4-AF9 inh -5.5.
For Cc1ccc(-c2ccc(C3[C@H]4CNC[C@@H]3N4S(=O)(=O)c3ccccc3)cc2)cc1 (some centres not stated) the results were MLL AF4-AF9 inh 3.8&0.8.
Screening CCCNC(=O)N1[C@H](CO)[C@H](c2ccc(C#Cc3cccc(F)c3)cc2)[C@@H]1C#N returned MLL AF4-AF9 inh 1.2.
Screening Cc1ccc(-c2ccc([C@H]3[C@@H](CO)N4C(=O)CN(S(=O)(=O)c5cccc(F)c5)C[C@@H]34)cc2)cc1 returned MLL AF4-AF9 inh -0.8.
Screening CC(C)CC#Cc1ccc([C@H]2[C@H]3CN(C(=O)c4ccccn4)CC(=O)N3[C@H]2CO)cc1 returned MLL AF4-AF9 inh 1.3.
For CNC[C@H]1Oc2ccc(NC(=O)C3CC3)cc2CC(=O)N([C@H](C)CO)C[C@@H]1C the results were MLL AF4-AF9 inh 5.9.
Screening O=C(C1CCC1)N1CC[C@@H]2[C@H](CO)Nc3ccc(-c4cccc(F)c4)cc3[C@@H]21 returned MLL AF4-AF9 inh -2.1.
COc1ccc(CN(C)C[C@@H]2OCCCC[C@@H](C)Oc3ccc(NS(=O)(=O)c4ccc(C)cc4)cc3C(=O)N([C@H](C)CO)C[C@H]2C)cc1 was read as MLL AF4-AF9 inh 5.8.
Screening C[C@@H]1CCCCO[C@@H](CN(C)S(=O)(=O)c2ccc(F)cc2)[C@@H](C)CN([C@@H](C)CO)C(=O)c2cc(NC(=O)Nc3ccc(C(F)(F)F)cc3)ccc2O1 returned MLL AF4-AF9 inh -6.5.
`CC(C)NC(=O)N(C)C[C@H]1OCCCC[C@H](C)Oc2ccc(NC(=O)Nc3ccccc3)cc2C(=O)N([C@H](C)CO)C[C@@H]1C` gave MLL AF4-AF9 inh -11.
Screening Cc1noc(C)c1NC(=O)Nc1ccc2c(c1)C(=O)N([C@@H](C)CO)C[C@@H](C)[C@H](CN(C)S(=O)(=O)c1ccccc1)OCCCC[C@@H](C)O2 returned MLL AF4-AF9 inh -0.1.
Screening Cc1noc(C)c1NC(=O)Nc1ccc2c(c1)C(=O)N([C@H](C)CO)C[C@H](C)[C@H](CN(C)S(=O)(=O)c1ccc(F)cc1)OCCCC[C@@H](C)O2 returned MLL AF4-AF9 inh -1.4.
`CCCNC(=O)N1CC2(CN(C(=O)C3CCC3)C2)c2c([nH]c3cc(OC)ccc23)[C@@H]1CO` gave MLL AF4-AF9 inh -1.8.
For O=C(c1ccc(F)cc1)N1CC(=O)N2[C@@H](CO)[C@H](c3ccc(C#Cc4ccc(F)cc4)cc3)[C@@H]2C1 the results were MLL AF4-AF9 inh -2.3.

A stretch from further up, for reference:
Screening CC(C)CC#Cc1ccc([C@H]2[C@H]3CN(C(=O)c4ccccn4)CC(=O)N3[C@H]2CO)cc1 returned MLL AF4-AF9 inh 1.3.
For CNC[C@H]1Oc2ccc(NC(=O)C3CC3)cc2CC(=O)N([C@H](C)CO)C[C@@H]1C the results were MLL AF4-AF9 inh 5.9.
Screening O=C(C1CCC1)N1CC[C@@H]2[C@H](CO)Nc3ccc(-c4cccc(F)c4)cc3[C@@H]21 returned MLL AF4-AF9 inh -2.1.
COc1ccc(CN(C)C[C@@H]2OCCCC[C@@H](C)Oc3ccc(NS(=O)(=O)c4ccc(C)cc4)cc3C(=O)N([C@H](C)CO)C[C@H]2C)cc1 was read as MLL AF4-AF9 inh 5.8.
Screening C[C@@H]1CCCCO[C@@H](CN(C)S(=O)(=O)c2ccc(F)cc2)[C@@H](C)CN([C@@H](C)CO)C(=O)c2cc(NC(=O)Nc3ccc(C(F)(F)F)cc3)ccc2O1 returned MLL AF4-AF9 inh -6.5.
`CC(C)NC(=O)N(C)C[C@H]1OCCCC[C@H](C)Oc2ccc(NC(=O)Nc3ccccc3)cc2C(=O)N([C@H](C)CO)C[C@@H]1C` gave MLL AF4-AF9 inh -11.
Screening Cc1noc(C)c1NC(=O)Nc1ccc2c(c1)C(=O)N([C@@H](C)CO)C[C@@H](C)[C@H](CN(C)S(=O)(=O)c1ccccc1)OCCCC[C@@H](C)O2 returned MLL AF4-AF9 inh -0.1.
Screening Cc1noc(C)c1NC(=O)Nc1ccc2c(c1)C(=O)N([C@H](C)CO)C[C@H](C)[C@H](CN(C)S(=O)(=O)c1ccc(F)cc1)OCCCC[C@@H](C)O2 returned MLL AF4-AF9 inh -1.4.
`CCCNC(=O)N1CC2(CN(C(=O)C3CCC3)C2)c2c([nH]c3cc(OC)ccc23)[C@@H]1CO` gave MLL AF4-AF9 inh -1.8.
